2A StopGo = FMDV 2A StopGo reporter, luciferase signal; human cells with a luciferase reporter of 2A StopGo recoding; control for the full effect not named in the record; Potency, µM (series often up to 57.9 µM), for the others: top-dose signal change, negative = less light; 410,000 compounds, 1.2% hits; active = well fitted falling curve with a large enough effect; inconclusive = small, poorly fitted or top-dose-only effect; inactive = no such curve, though single readings can be large or run the other way; tested in HEK293T cells; also: % is scaled to controls: 0 for no effect and ±100 for the full control effect; nearly all actives have a fitted effect of over 45% in size; luciferase light after 4 h
RE007 growth inh = less growth of the S. pombe RE007 Vpr strain. Potency, µM (titrated, usually from 92.2 µM), for inactives: top-dose activity change, negative = less growth. 360,000 compounds, 0.21% hits. S. pombe RE007 Vpr strain, BacTiter-Glo ATP luminescence, 24 h; control for the full effect not named in the record; active = well fitted falling curve with a large enough effect; inconclusive = small, poorly fitted or top-dose-only effect; inactive = no such curve, though single readings can be large or run the other way;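 also: % is scaled to controls: 0 for no effect and ±100 for the full control effect; nearly all actives have a fitted effect of over 50% in size; the assay follows cell death caused by Vpr and the record does not say whether a fall means rescue or toxicity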
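Fission yeast strain RE007, carrying one chromosomally integrated HIV-1 vpr copy, was seeded at OD 0.01 in PMG+AL medium with 23 nL pinned compound. After 24 h at 30 °C and 99% humidity, viability was read by BacTiter-Glo luminescence.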
Lassa entry inh = blocks Lassa virus binding to or entry into cells. Lassa virus pseudotype entry inhibition, cell reporter; control for the full effect not named in the record. Potency, µM (highest dose often 37.9 µM), inactives show at the highest dose activity change, negative = inhibition, hits mostly inhibitors. 300,000 compounds, 1.2% hits. AID 540256; active means well fitted inhibition curve with a large enough effect; inconclusive means small, poorly fitted or top-dose-only effect, or effect the other way; inactive means flat fitted curve, though single readings scatter; tested in HEK293 cells; also: % is scaled to controls: 0 for no effect and ±100 for the full control effect; nearly all actives have a fitted effect of over 50% in size; luciferase read-out
NS1 inh = blocks influenza NS1 protein function | S. cerevisiae slowed by influenza A NS1, growth recovery by OD600 | Potency, µM (titrated, usually from 46.1 µM), without a hit: top-dose activity, positive = more growth | 270,000 compounds, 0.4% hits | AID 2326; active means well fitted rising curve with a large enough effect; inconclusive means small, poorly fitted or top-dose-only effect; inactive means no such curve, though single readings can be large or run the other way; also: nearly all actives have a fitted effect of over 50% in size
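In this qHTS, NS1 from influenza A is expressed in budding yeast, where it slows growth. Cells are switched from glucose to 2% galactose medium (pH 6.0, -URA), treated with compound, and growth recovery is read at OD600.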
Cruzain inh noDet = blocks cruzain activity in detergent-free assay. Potency, µM, without a hit: max response, negative = inhibition, hits mostly inhibitors. 200,000 compounds, 2.3% hits. AID 1476. P25779. purified cruzain, Z-FR-AMC fluorescence, no detergent;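 also: plate controls were enzyme without inhibitor for no effect and buffer without enzyme for full effect; nearly all actives have a fitted effect of over 40% in size; top concentration of the series not given in the record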
Target sequence (P25779 123-467 limits assumed): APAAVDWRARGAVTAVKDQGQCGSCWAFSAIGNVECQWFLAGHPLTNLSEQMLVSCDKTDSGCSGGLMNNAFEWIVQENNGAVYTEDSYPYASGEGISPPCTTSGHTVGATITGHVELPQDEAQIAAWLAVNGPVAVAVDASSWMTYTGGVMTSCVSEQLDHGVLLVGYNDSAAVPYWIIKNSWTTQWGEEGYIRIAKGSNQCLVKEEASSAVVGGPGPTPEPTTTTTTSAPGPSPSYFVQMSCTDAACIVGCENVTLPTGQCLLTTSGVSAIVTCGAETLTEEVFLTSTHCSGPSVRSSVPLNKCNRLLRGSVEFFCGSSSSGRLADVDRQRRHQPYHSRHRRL
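Purified cruzain at 1.5 nM, pre-incubated 15 min with compound at room temperature in 100 mM sodium acetate pH 5.5, 5 mM DTT, 0.00005% Triton X-100. Reaction started with 2 uM Z-FR-AMC; AMC fluorescence increase over 60 s gives rate.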
Cruzain Triton = cruzain (T. cruzi) inhibition with detergent | 200,000 compounds, 0.43% hits | Potency, µM, inactives show max response, negative = inhibition, most hits filed as inhibitors | purified cruzain, Z-FR-AMC fluorescence, 0.01% Triton;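 also: plate controls were neutral wells for no effect and buffer without enzyme for full effect; nearly all actives have a fitted effect of over 40% in size; top concentration of the series not given in the record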
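Read-out: AMC fluorescence (360 nm excitation, 450 nm emission), four reads over 2 min, first-to-third difference used. Conditions: cruzain 1.5 nM, Z-FR-AMC 2 uM, pH 5.5 acetate, 5 mM DTT, 0.01% Triton X-100.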
SARS PLP yeast = SARS-CoV PLP inhibition in yeast; S. cerevisiae expressing SARS-CoV PLpro, growth rescue; control for the full effect not named in the record; Potency, µM (titrated, usually from 32.9 µM), inactives show at the top dose activity, positive = growth rescue; 330,000 compounds, 0.19% hits; active means well fitted rising curve with a large enough effect; inconclusive means small, poorly fitted or top-dose-only effect; inactive means no such curve, though single readings can be large or run the other way; also: 0% is about no effect; nearly all actives have a fitted effect of over 55% in size; growth read by luminescence after 48 h
Marburg entry inh = blocks Marburg virus binding to or entry into cells; Marburg virus pseudotyped entry inhibition, cell reporter; control for the full effect not named in the record; about a third of the inactives were read at about 46 µM; Potency, µM (doses to about 37.8 µM), without a hit: at the highest dose activity change, negative = inhibition, actives largely listed as inhibitors; 300,000 compounds, 1.8% hits; AID 540276; active = well fitted inhibition curve with a large enough effect; inconclusive = small, poorly fitted or top-dose-only effect, or effect the other way; inactive = flat fitted curve, though single readings scatter; tested in HEK293 cells; about a fifth of its hits are not listed in these tables; also: % is scaled to controls: 0 for no effect and ±100 for the full control effect; luciferase read-out
* marks the source's active call; other numbers are inactive results; [ ] = another dose, or the depositor's remark. Unless noted, calls follow the shape of the dose curve; as a rule, active = well fitted curve in the direction sought with a large enough effect; inconclusive = small, poorly fitted or top-dose-only effect, or another doubt; inactive = no such curve, though single readings can be large; an effect the other way counts as inactive or inconclusive. Potency is read from the fitted curve at half-maximal effect.

What do the screens show for `CC1CC(=O)C2=C(C1)Nc1ccccc1N(C(=O)COc1ccccc1)C2c1ccco1` (stereo not given)?
2A StopGo: 18%; RE007 growth inh: 7%; Lassa entry inh: 9%; NS1 inh: -9%; Cruzain inh noDet: -8%; Cruzain Triton: -3.4%; SARS PLP yeast: 0%; Marburg entry inh: 4%

Results for O=c1[nH]c(CN2CCN(Cc3ccc4c(c3)OCO4)CC2)nc2sc3c(c12)CCC3 ?
NS1 inh: inconclusive; Cruzain inh noDet: 17%; Cruzain Triton: 3.6%; SARS PLP yeast: 9%

Results for CN1CCN(C(=O)CCC(=O)NCc2ccc(F)cc2)CC1 ?
2A StopGo: 2%; RE007 growth inh: -6%; NS1 inh: 24%; SARS PLP yeast: 0%

What do the screens show for `CCCS(=O)(=O)N1CCCC(C(=O)Oc2ccccc2Cl)C1` (stereo not given)?
2A StopGo: -2%; RE007 growth inh: 2%; Lassa entry inh: -12%[46.1 µM]; NS1 inh: -10%; SARS PLP yeast: -5%; Marburg entry inh: inconclusive

Results for COc1ccc(/C(C)=N/Nc2ccc(C(=O)O)cc2)cc1OC ?
2A StopGo: -15%; RE007 growth inh: 21%; Lassa entry inh: inconclusive; NS1 inh: 15%; Cruzain inh noDet: -18%; Cruzain Triton: -18%; SARS PLP yeast: 5%; Marburg entry inh: inconclusive

How did COc1ccc(C2CC(c3ccccc3)=NN2C(=O)CSc2ncccn2)cc1 (stereo not given) do in these assays?
2A StopGo: 0%; RE007 growth inh: 37%; Lassa entry inh: inconclusive; NS1 inh: -1%; Cruzain inh noDet: 27%; Cruzain Triton: -12%; SARS PLP yeast: 30%; Marburg entry inh: -1%

Results for COc1ccc(C2=NS(=O)(=O)N(C)C(C(=O)N(C)Cc3ccccc3)=C2)cc1 ?
2A StopGo: -15%; RE007 growth inh: 0%; NS1 inh: -3%; SARS PLP yeast: 5%

What do the screens show for `O=C(O)C1(C(=O)O)CCCC1`?
2A StopGo: -8%; RE007 growth inh: 11%; Lassa entry inh: -5%[46.1 µM]; Marburg entry inh: 4%[46.1 µM]

Results for C/C(=N/NS(=O)(=O)c1ccc(C(C)(C)C)cc1)c1ccc2c(c1)OCO2 ?
2A StopGo: 0%; RE007 growth inh: -2%; Lassa entry inh: -1%[46.1 µM]; NS1 inh: -59%; SARS PLP yeast: -1%; Marburg entry inh: -5%[46.1 µM]

Results for COc1ccc(NC(=O)CN(C)C(=O)c2ccc(-c3ccccc3Cl)o2)cc1 ?
2A StopGo: -6%; RE007 growth inh: -1%; Lassa entry inh: -15%; SARS PLP yeast: -5%; Marburg entry inh: 13%[46.1 µM]

How did Cn1c(SCC(=O)NCc2cccs2)nnc1-c1ccco1 do in these assays?
2A StopGo: -18%; RE007 growth inh: -3%; Lassa entry inh: inconclusive; NS1 inh: 4%; Cruzain inh noDet: 9%; Cruzain Triton: 2.4%; SARS PLP yeast: -4%; Marburg entry inh: 7%

Results for COc1ccc(C2/C(=C(/O)c3ccc(F)cc3)C(=O)C(=O)N2CCCN(C)C)cc1 (stereo not given) ?
2A StopGo: -7%; RE007 growth inh: 8%; Lassa entry inh: 22%; NS1 inh: 4%; Marburg entry inh: 6%[46.1 µM]

Results for Cc1cc(Nc2ccc3c(c2)OCCO3)n2ncnc2n1 ?
2A StopGo: 1%; RE007 growth inh: 13%; Lassa entry inh: -5%; NS1 inh: inconclusive; Cruzain inh noDet: 4%; Cruzain Triton: -0.6%; SARS PLP yeast: -3%; Marburg entry inh: 1%

Results for Cc1ccc(Cl)cc1NC(=O)NC1COc2ccccc2C1 (stereo not given) ?
2A StopGo: 2%; Lassa entry inh: 16%[46.1 µM]; Cruzain inh noDet: -7%; Cruzain Triton: 2.1%

What do the screens show for `O=C(Nc1nc(-c2ccccc2)cs1)C1CCCO1` (stereo not given)?
RE007 growth inh: inconclusive; Lassa entry inh: inconclusive; NS1 inh: -13%; Cruzain inh noDet: -1%; Cruzain Triton: 3.6%; SARS PLP yeast: -2%; Marburg entry inh: 16%

How did O=C(NCc1nnc(SCc2ccc(C(F)(F)F)cc2)n1-c1ccccc1)C12CC3CC(CC(C3)C1)C2 do in these assays?
2A StopGo: inconclusive; RE007 growth inh: -3%; Lassa entry inh: inconclusive; NS1 inh: inconclusive; Cruzain inh noDet: 8%; Cruzain Triton: -6.3%; SARS PLP yeast: -15%; Marburg entry inh: 11µM*

What do the screens show for `CCOc1ccccc1NC(=O)Nc1cc(C(=O)O)ccc1C`?
2A StopGo: 9%; RE007 growth inh: 1%; Lassa entry inh: -1%[46.1 µM]; NS1 inh: -1%; SARS PLP yeast: 0%; Marburg entry inh: -11%[46.1 µM]

How did COc1ccc(Cl)cc1NC(=O)c1c(NCc2cccs2)sc2c1CCCC2 do in these assays?
2A StopGo: 3%; Lassa entry inh: 6%[46.1 µM]; Cruzain inh noDet: -30%; Cruzain Triton: -9.1%

What do the screens show for `COC(=O)[C@H](Cc1ccccc1)NC(=O)NCc1ccccc1`?
2A StopGo: 11%; RE007 growth inh: 19%; NS1 inh: 0%; SARS PLP yeast: 0%

How did CCN1CCN(c2ncc3c(n2)CCN(Cc2cc(Br)cs2)C3)CC1 do in these assays?
2A StopGo: -8%; Lassa entry inh: 10%[46.1 µM]; Cruzain inh noDet: -2%; Cruzain Triton: -5.1%

What do the screens show for `CC1=CC(C)=Nc2ccccc2N1`?
RE007 growth inh: -1%; Lassa entry inh: 4%; NS1 inh: -4%; Cruzain inh noDet: 1%; Cruzain Triton: 4.8%; SARS PLP yeast: -14%; Marburg entry inh: 30%

How did COc1cc(-c2nc3ccc4ccccc4c3c3c2CCC3)ccc1O do in these assays?
2A StopGo: 18%; RE007 growth inh: -8%; Lassa entry inh: -8%; NS1 inh: 12%; Cruzain inh noDet: 4%; Cruzain Triton: -7.9%; SARS PLP yeast: -32%; Marburg entry inh: 8%

How did COc1ccc(-c2nc(CN3CCCCC3CCc3ccccn3)c(C)o2)cc1 (stereo not given) do in these assays?
2A StopGo: 3%; RE007 growth inh: -21%; Lassa entry inh: inconclusive; NS1 inh: 5%; SARS PLP yeast: 1%; Marburg entry inh: inconclusive

Results for CC(C)(C)n1nc2c(c1NC(=O)c1cc3ccccc3o1)CSC2 ?
2A StopGo: -6%; RE007 growth inh: 7%; Lassa entry inh: -1%; SARS PLP yeast: -4%; Marburg entry inh: -8%

What do the screens show for `CCc1cc2c(-c3ccccc3)cc(=O)oc2c2c1OCN(Cc1ccc(F)cc1)C2`?
2A StopGo: 0%; Lassa entry inh: 5%[46.1 µM]; Cruzain inh noDet: inconclusive; Cruzain Triton: -5.1%; Marburg entry inh: inconclusive

What do the screens show for `O=c1nc(-c2ccccc2)n(-c2ccc(Cl)cc2)[nH]1`?
2A StopGo: -14%; RE007 growth inh: -10%; Lassa entry inh: 7%; NS1 inh: 0%; Cruzain inh noDet: 6%; Cruzain Triton: -1.2%; SARS PLP yeast: -12%; Marburg entry inh: 4%

What do the screens show for `COc1ccccc1NC(=O)C1CCN(C(=O)c2ccc(C(C)(C)C)cc2)CC1`?
2A StopGo: 20%; RE007 growth inh: 3%; Lassa entry inh: inconclusive; NS1 inh: 3%; SARS PLP yeast: -3%; Marburg entry inh: inconclusive

What do the screens show for `COc1ccc(CN2CCCC(CO)(Cc3ccc(F)cc3)C2)cc1C` (stereo not given)?
2A StopGo: -21%; RE007 growth inh: 7%; NS1 inh: -1%; SARS PLP yeast: -3%

Results for CCOc1ccc(-n2c(=S)sc3c(=O)[nH]c(SCC(=O)C(C)(C)C)nc32)cc1 ?
2A StopGo: inconclusive; RE007 growth inh: -12%; Lassa entry inh: -25%[46.1 µM]; SARS PLP yeast: 0%; Marburg entry inh: inconclusive

Results for Cn1cnc([N+](=O)[O-])c1SCC(=O)NN ?
2A StopGo: -15%; RE007 growth inh: -5%; NS1 inh: 1%; SARS PLP yeast: 2%

How did COc1cc(C2NC(=O)NC(c3ccccc3)=C2C(C)=O)ccc1OCC(=O)O (stereo not given) do in these assays?
RE007 growth inh: 2%; Lassa entry inh: -8%; NS1 inh: inconclusive; Cruzain inh noDet: -26%; Cruzain Triton: 2.5%; SARS PLP yeast: 2%; Marburg entry inh: 22%

How did OCCSc1nc2ccccc2n1CCOc1ccccc1 do in these assays?
RE007 growth inh: 5%; Lassa entry inh: -1%; NS1 inh: 4%; Cruzain inh noDet: 4%; Cruzain Triton: 3.6%; SARS PLP yeast: 15%; Marburg entry inh: 13%

How did O=C(c1ccc(F)cc1F)N1CCN(c2ncccn2)CC1 do in these assays?
2A StopGo: -15%; RE007 growth inh: 2%; Lassa entry inh: 0%; NS1 inh: 7%; Cruzain inh noDet: 5%; Cruzain Triton: 1.0%; SARS PLP yeast: 5%; Marburg entry inh: 2%

What do the screens show for `O=[N+]([O-])c1cccc(NC(=S)N2CCOCC2)c1`?
2A StopGo: 5%; RE007 growth inh: 1%; NS1 inh: 4%; SARS PLP yeast: -1%

What do the screens show for `CCC1CCCCN1C(=S)NC(=O)c1cccc([N+](=O)[O-])c1` (stereo not given)?
2A StopGo: -11%; RE007 growth inh: -6%; Lassa entry inh: 15%[46.1 µM]; NS1 inh: -12%; SARS PLP yeast: 3%; Marburg entry inh: -18%[46.1 µM]

From PubChem BioAssay
